Source: PubChem BioAssay (several laboratories)
CAL PDZ FP-1: blocks peptide binding to the human CAL PDZ domain; purified CAL PDZ, TMR-peptide fluorescence polarization, 1 h; inhibition, % at 24.9 µM; 0.92% of 300,000 active; AID 602252;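 active = mean inhibition of at least 30% with at least half of replicates also reaching 30%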;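 note: 0% = DMSO neutral control and 100% = excess unlabeled competitor peptide PRC23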
Wnt act: Wnt/beta-catenin pathway activation. Wnt/beta-catenin reporter cell assay, activator, plate reader. activation, % at 9.35 µM. 1.2% of 300,000 active; in the data active = activation above about 30%, passing the limit was not always enough;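 note: 0% = neutral control wells and 100% = positive control wells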
AddAB inh: less growth of phage-infected E. coli with AddAB; 0.29% of 330,000 active; inhibition, % at 11.9 µM; E. coli expressing H. pylori AddAB, absorbance growth; in the data active = inhibition above about 12%;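 note: 0% = vehicle wells of infected cells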
CAL PDZ FP-2: blocks peptide binding to human CAL PDZ domain | Q9HD26 | purified CAL PDZ, TMR-peptide fluorescence polarization, 1 h | inhibition, % at 20 µM | 0.02% of 330,000 active | AID 504414;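 active = highest replicate inhibition of at least 40%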;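 note: plate controls were DMSO neutral control wells for no effect and unlabeled competitor peptide control wells for full effect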
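System: purified tagged CAL PDZ domain construct (CerCALP). Schedule: 1 h incubation at room temperature before polarization reading. Medium: 25 mM sodium phosphate pH 7.4, 150 mM NaCl, TCEP, IgG, Thesit. Read-out: percent inhibition from loss of millipolarization. Measured by: FP readout, S and P plane fluorescence. Probe or stimulus: fluorescent TMR peptide probe.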
MITF TRPM1 HTS: MITF TRPM1 promoter activation in melanoma cells. 0.75% of 300,000 active. AID 588334. SK-MEL-5 TRPM1-promoter luciferase, 24 h; % of positive control, neutral wells = 0. activation, % at 12.5 µM;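 active = mean activation of at least 80% with every replicate also reaching 80%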;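 note: 0% = neutral control wells and 100% = parthenolide positive control wells; values of inactives mirror those of a sister screen read the other way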
Ecoli viability: bacterial growth inhibition, counter-screen for AddAB inhibitors; E. coli V3065 growth, OD600 absorbance, 18 h; inhibition, % at 11.9 µM; 0.27% of 330,000 active; AID 449728;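 active = inhibition above the campaign's mean inhibition across all tested compounds plus 3 SD, cut at about 9.9% in these data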;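 note: uninfected addAB+ strain grown without phage in ampicillin broth; 0% = DMSO wells and 100% = ciprofloxacin 0.95 µg/ml wells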
The depositor's hits bear a star; . = not tested or not shown; & = joins results of further samples. Some of the compounds tested; rates above refer to the full screens.

Field names: A = CAL PDZ FP-1; B = Wnt act; C = AddAB inh; D = CAL PDZ FP-2; E = MITF TRPM1 HTS; F = Ecoli viability
Cc1nnc(SCC2=C(C(=O)O)N3C(=O)[C@@H](NC(=O)Cn4cnnn4)[C@H]3SC2)s1
  A = -3&-1	B = -2	C = -1.3&0.7	D = -0.2&-0.2	E = -4&3	F = 0.5&-0.7

CNCC[C@H](Oc1ccc(C(F)(F)F)cc1)c1ccccc1
  A = -1	B = -4	C = 1.4	D = -0.6	E = -21	F = -0.3

CCOC(=O)C1=C(COCCN)NC(C)=C(C(=O)OC)C1c1ccccc1Cl (configuration not stated)
  A = 0&0&1	B = 0&2&-2	C = -1.4&2.3&-2.9	D = 1.0&-0.6&-1.0	E = -20&-29&8	F = -1.6&0.7&-2.2

CCOC(=O)C1=C(C)NC(C)=C(C(=O)OC)C1c1cccc(Cl)c1Cl (configuration not stated)
  A = -4	B = -2&-3	C = -3.2	D = 0.3	E = -5	F = -1.6

CCCC(=O)Nc1ccc(Cl)c(-c2nc3ncccc3o2)c1
  A = 1	B = -2	C = -1.4	D = -1.7	E = 19	F = -1.8

Cc1sc2ncnc(SCC(=O)N3CCN(C(=O)c4ccco4)CC3)c2c1C
  A = -5	B = -1	C = -0.5	D = -2.7	E = -45	F = 0.9

COc1cc2c(cc1OC)C1C(=O)c3cc(OS(C)(=O)=O)c(OC)cc3C1N(C)C2=O (configuration not stated)
  A = -1	B = 6	C = .	D = -0.1	E = .	F = .

Full records as entered above. Order of values: CAL PDZ FP-1, Wnt act, AddAB inh, CAL PDZ FP-2, MITF TRPM1 HTS, Ecoli viability
CCOC(=O)C1=C(COCCN)NC(C)=C(C(=O)OC)C1c1ccccc1Cl (configuration not stated) reads 0&0&1, 0&2&-2, -1.4&2.3&-2.9, 1.0&-0.6&-1.0, -20&-29&8, -1.6&0.7&-2.2
COc1cc2c(cc1OC)C1C(=O)c3cc(OS(C)(=O)=O)c(OC)cc3C1N(C)C2=O (configuration not stated) reads -1, 6, ., -0.1, ., .

Ordered by count of non-hydrogen atoms (largest number first): part of the list above
Field names: A = CAL PDZ FP-1; B = Wnt act; C = AddAB inh; D = CAL PDZ FP-2; E = MITF TRPM1 HTS; F = Ecoli viability
COc1cc2c(cc1OC)C1C(=O)c3cc(OS(C)(=O)=O)c(OC)cc3C1N(C)C2=O (configuration not stated)
  A = -1	B = 6	C = .	D = -0.1	E = .	F = .

CCOC(=O)C1=C(C)NC(C)=C(C(=O)OC)C1c1cccc(Cl)c1Cl (configuration not stated)
  A = -4	B = -2&-3	C = -3.2	D = 0.3	E = -5	F = -1.6

CNCC[C@H](Oc1ccc(C(F)(F)F)cc1)c1ccccc1
  A = -1	B = -4	C = 1.4	D = -0.6	E = -21	F = -0.3
